From PubChem BioAssay
HCMV UL50-53 inh: disrupts HCMV UL50-UL53 complex binding. HTRF UL50-UL53 interaction, normalized percent inhibition. inhibition, % (test concentration not listed). 190,000 tested, 0.15% active. AID 1918969;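 active = both replicates at 50% or more, plus weaker picks with an unusually low signal ratio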;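 note: stock transfer was 100 nL into about 20 µL; 0% = negative control wells and 100% = wells with untagged competitor protein; inactives centre near -12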
GIV Gai3 FP: blocks GIV peptide binding to rat Galpha-i3 | Galpha-i3/FITC-GIV peptide fluorescence polarization, 90 min; hits give low values; scaled: aluminum fluoride 0%, vehicle 100% | percent of control (FP), % (no concentration beside the values) | 210,000 tested, 0.42% active;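 active = replicate mean at 85% of control or lower, very high polarization wells dropped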;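 note: wells of about 15 µL received 100 nL stock; the first replicate is given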
Target sequence (P08753 whole entry, looked up): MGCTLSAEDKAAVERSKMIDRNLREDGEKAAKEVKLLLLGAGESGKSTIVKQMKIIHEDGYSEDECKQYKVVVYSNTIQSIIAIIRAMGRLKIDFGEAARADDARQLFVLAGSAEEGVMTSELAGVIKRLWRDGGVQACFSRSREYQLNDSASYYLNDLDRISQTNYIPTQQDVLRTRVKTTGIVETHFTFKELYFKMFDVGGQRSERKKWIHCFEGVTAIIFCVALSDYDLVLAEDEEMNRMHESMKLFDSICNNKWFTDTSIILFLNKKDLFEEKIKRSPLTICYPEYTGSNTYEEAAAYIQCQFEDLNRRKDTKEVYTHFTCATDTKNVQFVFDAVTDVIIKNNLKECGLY
Sa growth 42C: inhibitors of Staphylococcus aureus growth at 42 °C. S. aureus RN4220 growth, OD600, 20 h; hits give low values. relative growth, % (no concentration beside the values). 170,000 tested, 0.53% active. AID 720641;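 active = growth at 42 °C up to 50% and 20 or more points under that at 30 °C, or under 10% at both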;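 note: 300 nL library stock went into each well; scaled to the means of positive and negative controls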
Sa growth 42C second temp: recorded beside Sa growth 42C, whose call it bears; relative growth, %; measured here: growth at 30 °C;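 optical density after 20 h as mean of two plates; 100% = untreated growth and lower means inhibition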
* marks the source's active call; other numbers are inactive results; · = no result given. Random draw from the library (roughly 0.83% active in at least one column).

Structure,HCMV UL50-53 inh,GIV Gai3 FP,Sa growth 42C,Sa growth 42C second temp
O=C(Cc1ccc(NC(=O)N2CCCCc3ccccc32)cc1)NCc1ccccc1Cl,-11,105,·,·
CC(C)(CC(=O)NCc1ccc(Cl)cc1Cl)CC1=NS(=O)(=O)c2ccccc2N1,·,107,122,90
COc1ccc(NC(=O)CC2C(=O)N(c3ccc(C)cc3)C(=O)N2C2CCCC2)cc1 (stereo not given),·,102,109,103
COC(=O)c1sccc1-c1ccc(-c2ccn(C(=O)c3ccc(Cl)cc3)n2)o1,·,104,100,90
O=c1c(Cl)c(Cl)cnn1Cc1cc(=O)n2ccsc2n1,-56,·,93,79
CN(C)c1ccc(CNC(=O)c2cccc(NC(=O)N3CCSc4ncccc43)c2)cc1,·,107,113,83
COc1ccc(OC)c(N2C(=O)c3cc(C(C)(C)C)nn3CC2(C)C(=O)NC2CCCCC2)c1 (stereo not given),-9,97,·,·
CCOc1ccc(NC(=O)c2ccc(-c3cccc(Cl)c3C)o2)cc1,-52,110,95,89
Cc1ccc(-c2nn3c(=O)cc(CNC(=O)Nc4ccc5c(c4)OCCO5)nc3s2)cc1,3,102,·,·
ClCC1Cc2cc(I)c(Cl)cc2O1 (stereo not given),-10,·,104,88
c1ccc2[nH]c(Cc3nc4ccccc4[nH]3)nc2c1,-53,·,117,62
CCS(=O)(=O)N1Cc2ccccc2CC1C(=O)Nc1ccc(NC(C)=O)cc1 (stereo not given),-27,·,58,83

Other records follow.
Structure,HCMV UL50-53 inh,GIV Gai3 FP,Sa growth 42C,Sa growth 42C second temp
COC(=O)c1sc2c(c1C)c(=O)n(-c1ccccc1)c(=O)n2CC(=O)Nc1cccc(C)c1,·,100,93,85
Cc1nc(S(=O)(=O)N(C)C2CCCCC2)cn1C,11,96,114,92
COc1ccc(-n2nnc(-c3nc(-c4ccccc4OC)cs3)c2N)cc1,4,118,·,·
CC1(C)CC(=O)C(C=NC(C)(C)C)=C(O)C1,-18,108,113,98
Cc1ccc(C)c(NC(=O)C2CCCN(c3nc4ccccc4s3)C2)c1 (stereo not given),-30,100,93,84
COC(=O)c1c(N2CCCC2=O)c2cc(C)ccc2n1C,-35,100,·,·
CCC(=O)N1CCc2cc(S(=O)(=O)NC(Cc3ccccc3)C(=O)NCc3ccccc3OC)ccc21 (stereo not given),-20,104,118,87
Cc1ccc2oc(-c3nnc(C(=O)NCCC4=CCCCC4)o3)c(C)c2c1,-21,103,·,·
c1cnc2nc(N3CCOCC3)oc2c1,-19,101,·,·
O=C1c2cccc3cccc(c23)C(=O)N1O,-95,111,109,77
COc1ccc(SCC(=O)Nc2ccccn2)cc1,-1,·,73,91
Cc1ccc(NC2(c3ccccc3)C(=O)c3ccccc3C2=O)cc1F,-5,107,111,92

New compounds follow:
Structure,HCMV UL50-53 inh,GIV Gai3 FP,Sa growth 42C,Sa growth 42C second temp
C[n+]1c(-c2ccccc2)oc2ccc3[nH]ccc3c21,-47,·,110,82
Cn1c(=O)oc2cc(S(=O)(=O)N3CCC(C(=O)Nc4ccc(Br)cc4)CC3)ccc21,-25,99,105,84
CC(C)S(=O)(=O)c1cnc(-c2cnccn2)nc1N,-45,104,89,87
CN(C)C(=O)NCc1ccc(S(N)(=O)=O)cc1,6,97,101,107
C=CCn1c(=O)n2ncnc2c2c3c(sc21)CCCC3,12,103,82,106
Cc1ccc(S(=O)(=O)N2CCN(c3nc(-c4ccccc4)ns3)CC2)cc1,-36,102,89,88
N#Cc1c(N)nc(SCC(=O)c2ccccc2)c(C#N)c1-c1ccc(O)cc1,30*,100,·,·
NC(=O)C1=CN(C(=O)Nc2ccc(Cl)cc2)CCC1C(F)(F)F (stereo not given),-3,104,100,89
O=C(Cn1c(NCCO)nc2ccccc21)c1ccccc1,-2,107,97,58
O=C(CN1C(=O)CC(c2ccccc2)=Nc2ccccc21)Nc1cccc(Br)c1,-29,102,·,·
COc1ccc(N2CCN(CCNC(c3ccc(F)cc3)c3nnc(-c4ccccc4)o3)CC2)cc1 (stereo not given),-34,97,86,41
CCCCCNc1nc(-c2ccco2)c2c(c1C#N)CCCC2,4,100,79,67

Remaining list, next part
Structure,HCMV UL50-53 inh,GIV Gai3 FP,Sa growth 42C,Sa growth 42C second temp
Cc1nc2ccc3nc(NC(=O)c4ccc(S(=O)(=O)N5CC(C)CC(C)C5)cc4)sc3c2s1 (stereo not given),-22,103,·,·
O=C(CSc1nnc2ccccn12)Nc1ccc2ccccc2c1,·,101,108,82
CCOC(=O)c1c(O)c2cccc3c2n(c1=O)CC3,2,103,·,·
COc1ccc(-n2ncc(NC(=O)NCc3cccs3)c2C)cc1,-19,107,94,94
CN(CCc1ccccn1)C(=O)c1ccccc1C(=O)O,-14,95,76,85
O=C(c1cc2ccccc2[nH]1)N1CCN(c2ccc(=O)n(-c3ccc(F)cc3)n2)CC1,-58,102,·,·
O=C(c1ccc(Nc2ccc(F)cc2)nn1)N1CCc2ccccc21,-22,104,·,·
Cc1cc(C(=O)CCC(=O)N2CCN(c3ncccn3)CC2)c(C)s1,-10,·,111,82
CCCc1nc2ccccc2n1CC(=O)Nc1ccc(F)cc1,-35,·,91,75
Cc1cccc(NC(=O)Cn2c(=O)oc3cc(S(=O)(=O)NC4CCCC4)ccc32)c1,-5,110,111,73
COc1cccc(N2CC(=O)N(/N=C/c3ccc(Cl)cc3)CC2=O)c1,-37,101,86,86
O=C(c1cnc2ccccc2c1S(=O)(=O)c1ccc(Cl)cc1)N1CCCCC1,-1,101,·,·

Carrying on.
Structure,HCMV UL50-53 inh,GIV Gai3 FP,Sa growth 42C,Sa growth 42C second temp
N=C1S/C(=C\c2ccc(-c3ccc([N+](=O)[O-])cc3)o2)C(=O)N1c1ccc2c(c1)OCO2,-3,114,·,·
O=S(=O)(CCNCc1cccs1)c1ccc(Cl)cc1,-1,108,109,82
Cc1ccc(-c2cnc(-c3ccncc3)o2)cc1,-37,107,71,61
C/C(=N\NC(=O)COc1ccc(Br)cc1)c1ccc2c(c1)OCO2,-18,·,104,98
COc1ccc(-c2nc(N3CCCCC3)c3ccccc3n2)cc1,-2,109,110,94
COC(=O)C1(C(O)c2ccc(Cl)cc2)CCCCC1 (stereo not given),-17,107,120,103
C(=NCC1CCC(CN=Cc2ccco2)CC1)c1ccco1 (stereo not given),-25,105,108,88
Cc1ccc(NC(=O)c2cnc(SCC(=O)Nc3cc(C)on3)n(C)c2=O)cc1,·,96,121,85
CNC(=O)n1nc(C)c(Cc2csc3ccc(Cl)cc23)c1C,0,110,110,101
O=C(O)COc1c(-c2ccccc2)oc2ccccc2c1=O,-32,102,113,104
COc1ccc(-c2nc(C(N)=O)c3c(n2)n(-c2ccc4c(c2)OCO4)c(=O)n3C)cc1,-41,101,·,·
CCN(CC)C(=O)CN1CCN(c2cccc(Cl)c2)CC1,5,108,84,72

Continued.
Structure,HCMV UL50-53 inh,GIV Gai3 FP,Sa growth 42C,Sa growth 42C second temp
C=CCn1c(SCC(N)=O)nnc1C1CCCCC1,-18,100,100,101
CNC(=O)c1ccc(-c2nc(CN3CCN(C(=O)Nc4ccc(Cl)cc4)CC3)c(C)o2)cc1,-5,111,·,·
COc1ccc(-n2ncc(C(=O)Nc3ccc4nccnc4c3)c2C)cc1,-50,108,92,69
CC(C)S(=O)(=O)N1CCN(c2ccnc3cc(Cl)ccc23)CC1,-11,101,91,89
Cc1noc(C)c1C(=O)OCC(=O)N(c1ccccc1)C1CCCCC1,12,·,99,96
CC(C)C(=O)Nc1ccc2c(c1)C(=O)NC2=O,-66,100,103,92
Cc1cc(C)cc(NS(=O)(=O)c2ccc3[nH]cc(C(=O)NCCc4ccccc4)c(=O)c3c2)c1,-11,101,105,82
COc1ccc2nc(C(=O)N3CCN(C)CC3)sc2c1,6,·,94,88
COC(=O)c1cc(S(=O)(=O)NCc2ccccc2)c[nH]1,·,101,99,85
CCOC(=O)N1CCC(N(CCN(C)C)C(=S)Nc2ccc(C)c(F)c2)CC1,·,102,128,82
Cc1ccc(-c2ccc(N3CCCC(C(=O)NCCCN4CCOCC4)C3)nn2)cc1 (stereo not given),-83,104,·,·
O=C(Nc1ccc(Br)cc1F)c1ccc2nc(CCc3ccccc3)oc2c1,·,101,86,93

Brought forward from above: 4 entries, then new ones.
Structure,HCMV UL50-53 inh,GIV Gai3 FP,Sa growth 42C,Sa growth 42C second temp
COC(=O)c1cc(S(=O)(=O)NCc2ccccc2)c[nH]1,·,101,99,85
CCOC(=O)N1CCC(N(CCN(C)C)C(=S)Nc2ccc(C)c(F)c2)CC1,·,102,128,82
Cc1ccc(-c2ccc(N3CCCC(C(=O)NCCCN4CCOCC4)C3)nn2)cc1 (stereo not given),-83,104,·,·
O=C(Nc1ccc(Br)cc1F)c1ccc2nc(CCc3ccccc3)oc2c1,·,101,86,93
O=C(CN1CCN(c2ccc(F)cc2)CC1)N1CCCC1,-12,98,114,95
CCCN1CCCc2cc(CN(CCOC)C(=S)Nc3ccccc3OC)ccc21,·,114,81,80
CN(C)c1ccc(NC(=O)c2cn(C)c3c(=O)n(-c4ccccc4)c(=O)[nH]c23)cc1,-20,100,·,·
Cc1ccc(Cn2c(CO)cnc2SCc2ccc(F)cc2)cc1,·,105,130,106
CCOC(=O)CC(=O)CSc1nc2ccccc2c(=O)n1CCc1ccccc1,·,104,90,88
Cc1ccc(NC(=O)NC2CC(C)(C)NC(C)(C)C2)cc1,3,101,113,104
O=C(COC(=O)c1c(C(F)(F)F)cccc1C(F)(F)F)c1ccc(Cl)cc1,-21,99,69,90
CCNc1nc(Oc2ccc(OCC(=O)OC)nn2)nc(N2CCOCC2)n1,-24,106,83,83
CO/C(C)=C\c1sc2ccccc2[n+]1C,18,·,92,98
CCCC(CCC)C(=O)Nc1cc(-c2cn3cccnc3n2)ccc1OC,·,98,89,90
O=C(C(NS(=O)(=O)c1cccc2nsnc12)c1ccccc1)N1CCN(c2ccc(F)cc2)CC1 (stereo not given),-73,103,101,88
CCOc1cc(C=C2C(=O)OC(C)(C(C)(C)C)OC2=O)ccc1O (stereo not given),29,103,93,95

Next records:
Structure,HCMV UL50-53 inh,GIV Gai3 FP,Sa growth 42C,Sa growth 42C second temp
COc1ccc(C2CC(=O)N(c3ccc(C)c(Cl)c3)C(=O)C2)cc1,-29,98,·,·
CCCS(=O)(=O)c1c(C)c(C)n(Cc2ccc(C(F)(F)F)cc2)c1N,4,101,95,98
CCn1cc(S(=O)(=O)c2cc(C)cc(C)c2)c(=O)c2cc(F)c(N3CCC(C)CC3)cc21,·,108,91,85
CCN1C(=O)CCc2cc(NS(=O)(=O)c3ccc(C)c(C)c3)ccc21,-28,102,·,·
COc1cccc(-c2nn(C)c3sc(C(=O)NCc4ccccn4)cc23)c1,7,108,103,96
O=C(Nc1ccccc1N1CCCC1)c1cccc(OCc2ccccc2)c1,·,105,105,91
Clc1cc(CSc2nnnn2C2CCCC2)cc2c1OCCCO2,-28,·,89,88
CN(Cc1ccccc1)C(=O)CCN1C(=O)COc2ccccc21,·,102,108,86
CCC(=O)Nc1ccccc1-c1nnc(SC(C)C(=O)Nc2ccccc2CC)[nH]c1=O (stereo not given),-9,98,·,·
Cc1c(NC(=O)c2ccc(-c3cccc([N+](=O)[O-])c3)o2)cccc1-c1nc2cc(Cl)ccc2o1,-33,104,97,90
CC(NC(=O)CSc1ccccc1Cl)C1CC2CCC1C2 (stereo not given),-34,·,109,85
O=C(Nc1nc2nc(-c3ccccc3)cc(=O)n2[nH]1)c1ccc(F)cc1,8,97,·,·

Other structures
Structure,HCMV UL50-53 inh,GIV Gai3 FP,Sa growth 42C,Sa growth 42C second temp
CCOc1ccccc1NC(=O)Nc1ccc2nc(N3CCN(C)CC3)cc(C)c2c1,·,110,113,79
Cc1ccc(C(=O)N(C)Cc2nc3ccccc3c(=O)[nH]2)c(O)c1,-15,·,86,88
O=C(NCCN1CCOCC1)c1cccc(S(=O)(=O)Nc2ccccc2F)c1,-24,·,80,87
Cc1ccc(NC(=O)c2ccc3c(c2)nnn3C)cc1,-5,98,·,·
CCOc1ccccc1C(=O)NCc1ccc2c(c1)CCN2C(=O)c1ccc(F)cc1,·,104,121,62
Cc1ccc2c(c1)CCCN2C(=O)CC1OC(=O)c2ccccc21 (stereo not given),-25,·,75,91
COc1ccc(C(=O)Nc2ccc3oc(-c4ccc(OC)cc4)nc3c2)cc1,-1,101,95,77
CCOC(=O)c1ccc(Nc2nc3nonc3nc2NC(C)C)cc1,-16,96,·,·
CCC(C)c1ccccc1OCCCCN1CCN(C)CC1 (stereo not given),-14,105,112,98
Cc1ccc(CSc2oc(-c3ccco3)nc2S(=O)(=O)c2ccc(C)cc2)cc1,-13,99,95,89
O=C(c1ccco1)N1N=C2c3ccccc3CCC2C1c1ccc(F)cc1 (stereo not given),-1,95,86,85
CCN(CC)CCNC(=O)C(=O)Nc1c2c(nn1-c1ccc(F)cc1)CSC2,·,100,125,87
C=CCN(CC=C)C(=O)Cc1ccccc1OC,-10,·,93,92
CN(Cc1ccco1)C(=O)C1CCC(=O)N1Cc1ccc(F)cc1 (stereo not given),3,103,102,101
CC(C)c1cc(C(=O)N2CCN(C)CC2)no1,-11,107,·,·
